Screening data deposited in PubChem BioAssay by ICCB-Longwood Screening Facility, Harvard Medical School.
CapD inh = inhibitors of Bacillus anthracis CapD enzyme | z-score (concentration not given with the values) | hit rate 0.23% among 140,000 | purified CapD enzyme, fluorescence intensity read-out; hits give low values; some hits fall short of the stated cut;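 active = z-score under -4 in either of two replicates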;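 also: stock transfer was 100 nL into about 40 µL; score is relative to mean and spread of the plate; one replicate is shown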
AID504770 = growth inhibitors of E. coli YBA685 in a screen for V. cholerae RctB (chromosome II replication) inhibitors; E. coli YBA685 rctB-dependent plasmid, OD600 growth, 3 h; hits give low values; hit rate 0.27% among 130,000; z-score (no concentration beside the values);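 active = z-score under -2 on both plates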;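 also: wells of about 30 µL received 100 nL stock; score is relative to mean and SD of the test wells; the first replicate is given; strong numbers were not always called active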
Active calls of the source: *; x = not tested or not shown; & = joins results of further samples. An unsorted share of the library; 0.37% or so of the library scored in one or more.

Each structure is followed by: CapD inh | AID504770
- CCOc1ccc(N2C(=O)c3ccccc3C2Nc2ccccc2OC)cc1 (centres undefined)
    0.14 | 1
- Cc1cc(C)n2c(Br)c(CSc3nc4ccccc4o3)nc2n1
    -0.025 | -0.5
- C[N+](C)(C)CCOC(=O)c1ccccc1
    0.07 | -0.8
- COc1ccc(N2CCN(c3nc(N4CCCC4)nc(N4CCCC4)n3)CC2)cc1
    -0.76 | x
- COc1ccc(CNC(=O)Cc2cccs2)cc1OC
    0.13 | -1.2
- Cn1c(=O)c2c(nc(Br)n2CC(=O)c2ccc(Br)cc2)n(C)c1=O
    -0.06 | x
- CCc1ccc(-n2c(N)c(C(=O)Nc3ccccc3C)sc2=S)cc1
    0.37 | x
- Oc1cccc(C(=S)N2CCCCC2)c1
    x | -0.75
- O=C(c1cccc(S(=O)(=O)NC2CC2)c1)N1CCN(c2ncccn2)CC1
    x | -0.4
- CN(C)CC(C)(C)CNc1ncnc2sccc12
    x | 0.25
- CCOC(=O)Cc1csc(NS(=O)(=O)c2ccc(Cl)cc2)n1
    0.4 | x
- CCOC(=O)c1csc(-c2cn(C(C)C)c(=O)n(Cc3ccccc3)c2=O)n1
    3.2 | 0.7
- N#Cc1c(N)nc(SCc2ccc(F)cc2)c(C#N)c1-c1cccs1
    1.2 | x
- COC(=O)CSc1nc(SCc2ccc(C)cc2)nc2c1CCCC2
    -0.36 | x
- CCn1c(C)nc2cc(S(=O)(=O)C(F)(F)F)ccc21
    -0.56 | -0.7
- C=CCNC(=O)Cc1ccc(-c2ccccc2)cc1
    x | 0.2
- CC1(C)CC(=O)C(c2nc3ccc(C(=O)c4ccccc4)cc3[nH]2)=C(O)C1
    4.1 | -0.2
- Cc1nc(N2CCCC2)nc2oc(-c3ccccc3)nc12
    121 | -0.25
- COCCOC(=O)C1=C(C)NC2=C(C(=O)CC(c3ccc(OC)c(OC)c3)C2)C1c1cccc(OC)c1OC (centres undefined)
    11 | x
- Cc1ccc(Oc2ncccc2N)c2c1CCC2
    0.49 | x
- CC(=O)Nc1ccc(Oc2ccc(-c3noc(C)n3)cc2)cc1
    -0.05 | -0.05
- COC(=O)c1cccc2[nH]ncc12
    -0.025 | -0.05
- CCOc1cc(/C=c2\sc3nc4ccccc4n3c2=O)c(Br)cc1OCC(=O)O
    -1.5 | x
- Nc1sc2c(c1-c1nc3ccccc3s1)CCC2
    1.9 | 0.15
- COC(=O)CCSc1nc2sc3c(c2c(=O)n1-c1ccc(OC)cc1)CCC3
    -0.23 | x
- CC1=CC(C)C2(CO)COC(=C(C)C)C1C2C (centres undefined)
    0.72 | 0.7
- O=C1c2ccccc2S(=O)(=O)c2cc(C(=O)N(Cc3ccco3)C3CCS(=O)(=O)C3)ccc21 (centres undefined)
    x | 0.25
- COc1ccc(NC(=O)CSC2CCCCC2)cc1
    -0.45 | -0.9
- CCCCC(=O)Nc1nnc(-c2ccc(OC)cc2OC)s1
    0.83 | 0
- O=C(CSc1n[nH]c(-c2ccncc2)n1)N1c2ccccc2OCC1c1ccccc1 (centres undefined)
    x | -0.75
- COc1cc2c(cc1OC)CNCC2
    x | -0.6
- O=C(NC1CCN(Cc2ccccc2)CC1)c1cccs1
    -0.04 | -0.3
- COc1c(C(=O)O)sc(C(=O)O)c1OC
    -0.26 | x
- O=C(/C=C/c1c(Cl)nc2sccn12)Nc1ccc2c(c1)OCCO2
    x | -0.75
- O=S1(=O)CCC(S(=O)(=O)Nc2ccccc2)C1 (centres undefined)
    -0.94 | 0.5
- CS(=O)(=O)c1ccccc1C(=O)NCc1cccnc1
    -0.065 | x
- C=C1C/C(=C/C)C(=O)O[C@@H]2CCN3CC=C(COC(=O)[C@]1(C)O)[C@H]23
    -0.4 | x
- COC(=O)C1=C(C)N(c2ccc(Br)cc2)C(=O)/C1=C\c1ccco1
    0.27 | 0.75
- Cc1cccc(NC(=S)NC23CN4CN(CN(C4)C2)C3)c1C
    -0.035 | 0
- Cc1ccc(CN2C(=O)/C(=c3\sc4nc(-c5cccs5)nn4c3=O)c3ccccc32)cc1
    -0.59 | 1.9
- CC(NS(=O)(=O)c1ccccc1)C(c1cccs1)N1CCN(C)CC1 (centres undefined)
    0.46 | -0.6
- Cc1cc2nc(C(F)(F)F)cc(-c3cccs3)n2n1
    21 | -1.6
- COc1ccc(CNC(=O)c2cc3sccc3n2CC(=O)c2ccccc2)cc1
    x | 1.4
- CC1=C(C(=O)NCCCN2CCN(c3cc(Cl)ccc3C)CC2)C2(CCCCC2)OC1=O
    0.26 | 2
- CC(C)CS(=O)(=O)C1=NN2C(=N)/C(=C\c3ccc(N(C)C)c(Br)c3)C(=O)N=C2S1
    -0.08 | 0
- CNC(=S)N=Nc1c(O)[nH]c2ccc(C(C)C)cc12
    x | 0.65
- O=C(CN1CCOCC1)NCc1ccccc1
    0.005 | 0.85
- CCOC(=O)COc1cc(OCC(=O)OCC)c2c3c(c(=O)oc2c1)CCC3
    x | -0.65
- CSc1ccccc1NC(=O)c1cc(Cl)sc1Cl
    -0.91 | -0.5
- CCOc1ccccc1NN
    0.64 | -1.1
- CCOC(=O)C1=C(N)Oc2cc(O)ccc2C1c1cccnc1 (centres undefined)
    -0.61 | x
- Cc1ccc(Oc2ccc(C(=O)O)cc2)cc1C
    -0.21 | -0.85
- CCCN(CCC)c1ncnc2c1cnn2-c1ccc(OC)cc1
    -0.17 | -0.05
- CC(=O)Oc1ccc(Nc2ccccc2)cc1
    0.55 | -0.05
- N=C1/C(=C(/O)c2ccccc2)C(c2ccccc2)C2=C(CCCC2=O)N1c1ccccc1 (centres undefined)
    -0.27 | x
- Cc1ccc(S(=O)(=O)N2CCCCC2)cc1C(=O)N1CCCC1
    -0.6 | -1.1
- CCN(CC)S(=O)(=O)c1ccc(C(=O)N2CCNC(=O)C2)cc1
    x | 0.7
- COC(=O)CCS(=O)(=O)c1ccc(Oc2ccc(S(=O)(=O)CCC(=O)OC)cc2)cc1
    -0.26 | 0.1
- CCOC(=O)C1=C(CSc2nc(CC)c(C)cc2C#N)OC(N)=C(C#N)C1c1ccccc1I (centres undefined)
    -0.095 | x
- COc1ccc(-c2ccc3c(n2)sc2c(O)cc(=O)[nH]c23)cc1
    31 | 0.65

Other compounds
Each structure is followed by: CapD inh | AID504770
- Cc1ccc(CSc2ccccc2-c2nnc(-c3ccc(C)cc3)o2)cc1
    0.085 | x
- Cc1[nH]n(-c2ccc([N+](=O)[O-])cc2)c(=O)c1C=NCCN1CCN(C(=O)c2ccccc2)CC1
    -0.86 | x
- CC(NC(=O)Nc1ccccc1O)(C(F)(F)F)C(F)(F)F
    -0.24 | -1.1
- COc1cc(CNC(=O)CCCC/C=C/C(C)C)ccc1O
    1.4&-2.2 | -0.2
- O=C(N/N=C/c1cccc(OCc2ccccc2)c1)c1cccc(F)c1
    -0.42 | x
- COc1ccc(OC)c(Nc2nc3nonc3nc2Nc2cccc(C)c2)c1
    0.3 | x
- CCOC(=O)NS(=O)(=O)c1ccccc1Cl
    0.12 | -0.5
- Cc1ccc([N+](=O)[O-])cc1S(=O)(=O)Nc1cc(C(F)(F)F)ccc1Oc1ccc(C)c2c1CCC2
    -0.005 | x
- Cc1cc2cc3c(cc2nc1SCCN1CCCC1)OCCO3
    x | 1.7
- O=C(O)c1cc2c(F)cccc2s1
    x | 0.8
- Cc1ccc(C)c(N2CCN(CCCNS(=O)(=O)c3ccc4oc(=O)c5ncn(C)c5c4c3)CC2)c1
    0.42 | -0.6
- O=c1/c(=C/c2cccc(F)c2)sc2nc(C3COc4ccccc4O3)nn12 (centres undefined)
    -0.06 | -0.15
- CN(C)/C=C(\C#N)S(=O)(=O)/C(C#N)=C/N(C)C
    0.64 | x
- Cc1ccc(NC2(C#N)C(=O)Nc3ccccc32)cc1 (centres undefined)
    0.55 | -0.2
- Cc1ccc(S(=O)(=O)NCC2CCCO2)cc1 (centres undefined)
    x | -0.25
- CC12CCC(C1)C(C)(C)C2NC(=O)c1ccc(Cl)cc1 (centres undefined)
    0.14 | x
- CCNC(=O)N(CCSCc1cc2cccc3c2n(c1=O)CCC3)Cc1ccccn1
    2.2 | x
- CNC(=O)CN1C(=O)CSc2nc(C)cc(C)c21
    -0.82 | -0.65
- CSc1nc(-c2ccc(C)cc2)nc(N)c1C#N
    1.2 | -0.4
- COc1ccccc1N1CCN(c2ncnc3c2cnn3-c2ccc(Cl)cc2)CC1
    -0.27 | x
- COc1nsc(SC)c1C#N
    0.57 | -0.2
- Cc1ccc(C(=O)COC(=O)C2c3ccccc3Oc3ccccc32)cc1C
    2.6 | 0.95
- CC(C)C(=O)Nc1nc2ccc(S(C)(=O)=O)cc2s1
    0.78 | -0.7
- O=C(CSc1nnc2scc(-c3ccc(Cl)cc3)n12)NCc1ccc2c(c1)OCO2
    -0.45 | 1
- N#CCCn1nnc(-c2ccc(Cl)cc2)n1
    x | -0.95
- CC(C)c1ccc(NC(=O)C2C3C=CC4(CN(Cc5cccnc5)C(=O)C24)O3)cc1 (centres undefined)
    0.58 | -0.15
- Cn1c(=O)c2c(nc(SCCN3CCOCC3)n2Cc2ccccc2Cl)n(C)c1=O
    0.28 | -0.8
- CCCNC(=O)NCc1cc(C)n(-c2ccc(OC)cc2)c1C
    0.47 | -0.55
- N#CC(C(=O)CSc1nc2ccccc2n1-c1ccccc1)c1ccccc1 (centres undefined)
    x | -0.6
- COc1cc(/C=C2/OC(=S)N(C)C2=O)ccc1O
    -1.1 | -0.25

5 compounds already listed, arranged by molar mass, ascending.
Each structure is followed by: CapD inh | AID504770
- COc1nsc(SC)c1C#N
    0.57 | -0.2
- N#CCCn1nnc(-c2ccc(Cl)cc2)n1
    x | -0.95
- Cc1ccc(S(=O)(=O)NCC2CCCO2)cc1 (centres undefined)
    x | -0.25
- Cc1ccc(CSc2ccccc2-c2nnc(-c3ccc(C)cc3)o2)cc1
    0.085 | x
- CCNC(=O)N(CCSCc1cc2cccc3c2n(c1=O)CCC3)Cc1ccccn1
    2.2 | x

The list continues:
Each structure is followed by: CapD inh | AID504770
- CSCCC(NC=O)C(=O)NC(C)C(=O)O (centres undefined)
    0.51 | x
- Cc1onc(-c2c(F)cccc2Cl)c1NC(=O)OCc1sccc1-n1c(C)ccc1C
    0.29 | -0.35
- NC(=O)N/N=C/c1cccc(C(F)(F)F)c1
    x | -0.3
- CC(C)(C)OC(=O)CN1C(=O)c2ccccc2S1(=O)=O
    0.29 | 0.95
- CCOC(=O)c1sc(SC)c2c1CCCC2O (centres undefined)
    2.2 | x
- CCOC(=O)N1CCN(S(=O)(=O)N2CCCC(C(=O)NCc3ccc(F)cc3)C2)CC1 (centres undefined)
    -0.72 | -0.15
- O=C1NCC2=C1C(c1ccc(Br)cc1)Nc1ccccc1N2 (centres undefined)
    0.38 | -0.45
- OC(c1ccccc1)c1ccc(Br)cc1 (centres undefined)
    0.31 | -0.95
- O=C(CC(C(=O)O)C1CCCO1)Nc1ccccc1 (centres undefined)
    0.36 | -0.3
- CCOC(=O)c1ccc(NC(=O)c2sc(NC(=O)c3cccs3)c(C(=O)OCC)c2C)cc1
    0.96 | x
- CCC(C)(CN(C)C)OC(=O)c1ccccc1 (centres undefined)
    -1.3 | x
- O=C(Nc1ccc(Br)cc1)c1snnc1-c1ccccc1
    -0.53 | x
- Cc1cc(C(=O)Nc2ccc(N3CCOCC3)cc2)no1
    x | 0.35
- Cc1cc(Cl)ccc1OCCn1cncn1
    -0.04 | -1.2
- CCOC(=O)Nc1nc2ccccc2s1
    -0.1 | 0.9
- CC1=C(C(=O)OCC2CCCCC2)C(c2cccc(Oc3ccccc3)c2)NC(=O)N1 (centres undefined)
    -1.8 | x
- O=C(Nc1cccc(F)c1)c1c(Cl)nc2ccccn12
    -0.66 | 0.95
- Cc1ccnc(NS(=O)(=O)c2ccc(NC(=O)CSc3nc(C)cc(=O)[nH]3)cc2)n1
    0.1 | -0.95
- CCOc1ccccc1CNS(=O)(=O)c1cc(C)ccc1OC
    -0.38 | x
- O=C1CC(c2ccccc2)c2c(O)cc(O)cc2O1 (centres undefined)
    0.29 | -0.15
- COc1ccc(-c2noc(COC(=O)CSc3ncnc4sccc34)n2)c(OC)c1
    x | 1.4
- O=C1CN(C(=O)c2ccc(S(=O)(=O)N3CCOCC3)cc2)C(c2ccccc2)c2cc(F)ccc2N1 (centres undefined)
    0.21 | 0.6
- N#Cc1c(Cl)cccc1Oc1ccc(S(=O)(=O)NCCCn2ccnc2)cc1
    0.43 | x
- C=CCNC(=O)c1ccc2c(c1)OCO2
    -0.06 | -1.4
- COc1ccc(CNC(=O)/C=C/c2c(C)nn(C3CCS(=O)(=O)C3)c2Cl)cc1OC (centres undefined)
    x | 0.35
- CN(C)c1ccc(NC(=O)CC(C(=O)O)N(C)C)cc1 (centres undefined)
    x | 0.35
- CCc1sc(C(=O)N2CCN(S(=O)(=O)c3ccccc3)CC2)cc1Br
    0.43 | -0.4
- Fc1ccc(-n2nnnc2-c2cnccc2C(F)(F)F)cc1
    0.66 | 0.6
- CS/C(NCc1cccnc1)=C(/C#N)C(=O)C1CC1
    -1.1 | -0.35
- C=CCOC(=O)C1=C(N)OC(C)=C(C(=O)OC(C)(C)C)C12C(=O)Nc1ccccc12 (centres undefined)
    0.93 | x
- Clc1ccc(NCCC2=CCCCC2)nn1
    x | 0.25
- CCOC(=O)Cc1c(C)c2ccc(N(CC)CC)cc2oc1=O
    x | -0.4
